E coli growth = inhibitors of Escherichia coli growth | 330,000 tested, 0.21% active | AID 1053175 | OD600, 23 h; hits give low values | OD600 absorbance (concentration not given with the values);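 active = OD600 absorbance below the run mean of sample wells minus 3.6 SD, in any replicate, cut at about 0.56 in these data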;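 also: stock transfer was 300 nL into about 60 µL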
HNF4A DNA FP = change in binding of human HNF4 alpha to DNA; P41235; HNF4a-FITC DNA binding, fluorescence polarization, 1 h; activity change, % at 10 µM; 360,000 tested, 0.3% active; AID 1224865; in the data active = activity change above about 30%, passing the limit was not always enough;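 also: controls were the assay level and a saturating level of protein; the project sought stronger binding though the title names inhibitors; some compounds called inactive have numbers as strong as hits; positive values seem to mean higher polarization but the record does not say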
Target sequence (P41235 whole entry, looked up): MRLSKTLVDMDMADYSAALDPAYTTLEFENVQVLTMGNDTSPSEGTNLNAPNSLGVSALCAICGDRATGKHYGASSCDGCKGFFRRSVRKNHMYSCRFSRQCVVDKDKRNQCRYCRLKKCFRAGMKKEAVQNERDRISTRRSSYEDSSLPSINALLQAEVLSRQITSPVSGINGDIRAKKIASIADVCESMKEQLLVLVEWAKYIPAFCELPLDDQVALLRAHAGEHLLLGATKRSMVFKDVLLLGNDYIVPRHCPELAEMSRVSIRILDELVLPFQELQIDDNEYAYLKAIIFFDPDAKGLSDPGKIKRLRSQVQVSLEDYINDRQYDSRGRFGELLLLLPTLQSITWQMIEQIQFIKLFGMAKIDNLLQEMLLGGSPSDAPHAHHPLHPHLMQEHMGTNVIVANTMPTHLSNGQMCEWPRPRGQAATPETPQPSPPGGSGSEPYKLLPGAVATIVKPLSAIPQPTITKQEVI
Vif A3G = inhibitors of Vif binding to APOBEC3G peptide, primary screen, biochemical, TR-FRET, GST-Vif 1-94, biotin-A3G peptide, dose response retest (AID 1117319). inhibition, %; hits with a dose series show IC50 in µM. TR-FRET GST-Vif / biotin-A3G peptide binding; higher % means a stronger effect; test concentration not given here; strong numbers were not always called active. 260,000 tested, 0.57% active;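 active = above the screen mean plus three standard deviations and confirmed in dose response; inconclusive = results disagree or hit not tested in dose response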;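 also: Vif residues 1-94 fused to GST binding biotinylated APOBEC3G peptide 110-148; 0% = full assay without inhibitor and 100% = GST in place of GST-Vif; retest series ran down from 100 µM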
FGF22 binding = shifts melting point of recombinant human FGF22; Q9HCT0; recombinant FGF22 thermal shift, SYPRO orange fluorescence; percent of sucrose octasulfate shift, DMSO zero; calls only at 9.99 µM; 340,000 tested, 1.5% active;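 active = melting point raised past a set limit in the mean and every replicate; inconclusive = no clear call; three in four hits are not shown here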
ALR inh = blocks human ALR sulfhydryl oxidase activity. P55789. purified ALR, DTT oxidation, H2O2 HRP-luminol luminescence. inhibition, % (no concentration beside the values). 290,000 tested, 3.8% active. AID 485317;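 active = mean and each replicate at 75% or more; inconclusive = only one of the two met; inactive = neither met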;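 also: stock transfer was 7.5 nL into about 7.5 µL; 0% = neutral wells and 100% = wells with inactivated enzyme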
MLL AF4-AF9 inh = inhibitors of human MLL-AF4/AF9 interaction | inhibition, % at 10 µM | AlphaScreen, biotin-AF4 peptide binding to FLAG-AF9 | P42568 | AID 651704 | 350,000 tested, 0.47% active;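 active = every replicate reaching a set inhibition limit, whatever the replicate mean, cut at about 25% in these data; inconclusive = mean inhibition reaches that limit but some replicates miss it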;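 also: 0% = plate neutral control median and 100% = total signal loss; the record names both 10 and 1 µM as test concentration; the first replicate is given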
Target sequence (P42568 whole entry, looked up): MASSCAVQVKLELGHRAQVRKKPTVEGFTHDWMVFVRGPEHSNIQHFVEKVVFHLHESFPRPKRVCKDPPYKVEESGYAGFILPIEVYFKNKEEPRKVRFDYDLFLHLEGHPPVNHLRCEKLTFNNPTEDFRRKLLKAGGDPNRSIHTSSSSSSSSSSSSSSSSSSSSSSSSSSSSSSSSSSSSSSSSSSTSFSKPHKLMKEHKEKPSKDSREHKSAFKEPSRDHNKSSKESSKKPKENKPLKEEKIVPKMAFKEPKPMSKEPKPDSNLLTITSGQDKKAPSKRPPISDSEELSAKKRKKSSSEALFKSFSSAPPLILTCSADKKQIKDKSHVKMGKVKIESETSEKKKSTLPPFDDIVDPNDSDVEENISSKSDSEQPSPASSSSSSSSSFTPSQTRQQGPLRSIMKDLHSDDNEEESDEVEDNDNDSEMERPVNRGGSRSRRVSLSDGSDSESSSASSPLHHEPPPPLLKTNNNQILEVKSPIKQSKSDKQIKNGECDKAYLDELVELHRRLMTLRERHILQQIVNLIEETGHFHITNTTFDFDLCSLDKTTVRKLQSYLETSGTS
rRNA inh HTS = selective bacterial rRNA inhibition in E. coli; E. coli WT GFP vs humanized-ribosome RFP mutants, fluorescence, 24 h; hits give low values; DMSO median 0, no signal -100; GFP signal change (wild-type ribosome), % (concentration not given with the values); 350,000 tested, 1.6% active;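 active = significant combined selectivity score with lowered wild-type GFP, culture density cut under 30%, mutant RFP and density less affected; inactive = any of these conditions unmet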; also: one replicate is shown; some compounds called inactive have numbers as strong as hits
rRNA inh HTS OD600 = second read-out of rRNA inh HTS, no call of its own (marks repeat the call); OD600 change, %; measured here: OD600 growth;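 optical density of the mix in the first replicate; 0 = DMSO median and -100 = no signal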
rRNA inh HTS RFP = further read-out of rRNA inh HTS, marked with its call; RFP signal change, %; measured here: RFP humanized mutant strains;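 first replicate; 0 = DMSO median and -100 = no signal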
Starred values were filed as active, the others as inactive; i = inactive; ? = inconclusive; · = no result given. The list is partial, so the mix of outcomes need not match the whole.

SMILES	E coli growth	HNF4A DNA FP	Vif A3G	FGF22 binding	ALR inh	MLL AF4-AF9 inh	rRNA inh HTS	rRNA inh HTS OD600	rRNA inh HTS RFP
O=C(Nc1nc(-c2ccccc2)ns1)c1ccncc1	0.72	-5.0	?	i	-4	-13	7	1	-0.1
NNC(=O)c1csc(CS(=O)(=O)c2ccc(Cl)cc2)n1	0.71	-0.6	9%	i	-3	1.6	9	9	0.1
Cc1ccc(S(=O)(=O)NCCCCCC(=O)Nc2ccccn2)cc1	0.67	3.3	8%	·	-8	·	·	·	·
N#Cc1c(-c2ccccc2)oc(=O)c2ccccc12	0.68	2.8	-11%	i	·	0.8	7	4	0.3
O=C(OCc1cccc([N+](=O)[O-])c1)c1cccnc1Cl	0.7	0.7	·	i	3	0.5	-8	7	-0.6
C[C@@H]1CCCCO[C@@H](CN(C)S(=O)(=O)c2ccc(Cl)cc2)[C@@H](C)CN([C@H](C)CO)C(=O)c2cc(NC(=O)Nc3ccc(F)cc3)ccc2O1	·	·	·	i	·	-3.3	2	11	0.2
COC(=O)CNC(=O)c1cc(OC)cc(OC)c1	0.71	3.1	-2%	i	-15	-1.8	12	12	2.3
O=C(CCc1ccccc1)OCCN1CCOCC1	0.76	-3.0	-5%	·	-1	·	·	·	·
Cc1ccc(S(=O)(=O)N2CCOCC2)cc1NC(=O)COC(=O)Cn1c(C)csc1=O	0.69	0.7	-2%	i	-8	-8.4	2	11	-3.5
c1cc(CNCCNCc2ccncc2)ccn1	0.63	-1.6	9%	i	·	0.0	·	·	·
CO[C@H]1CN(C)C(=O)c2ccc(NS(C)(=O)=O)cc2OC[C@@H](C)N(C(=O)NC(C)C)C[C@H]1C	·	·	·	i	·	-2.1	-2	6	-6.1
COc1ccc(-c2nnc(SCC(=O)c3ccc(O)cc3O)o2)cc1	0.69	-0.2	2%	i	-8	-8.4	1	-7	4.6
O=c1cc(O)c(-c2cccc(C(F)(F)F)c2)c(Cl)[nH]1	0.68	0.3	15%	i	1	-2.1	1	-2	-0.1
COc1ccc(S(=O)(=O)n2c([N+](=O)[O-])cnc2C)cc1OC	0.61	2.7	·	·	·	0.4	9	7	-1.8
CC1CCCC(C)N1c1ccc(S(=O)(=O)N2CCOCC2)cc1Cl (stereo not drawn)	0.66	-0.5	·	i	-1	1.1	-7	-36	-0.5
COc1ccc(NC(=O)N(C)C[C@H]2Oc3ccc(NS(=O)(=O)c4c(C)noc4C)cc3CC(=O)N([C@H](C)CO)C[C@@H]2C)cc1	·	·	·	i	·	0.4	3	1	0.0
CCN(CC)CCNC(=O)CCn1nc(-c2ccc(Cl)cc2)ccc1=O	0.68	-1.6	-4%	i	·	-5.5	-4	11	1.6
COc1cc(/C(C)=N/NC(=O)CSc2nnc(C)s2)ccc1O	·	5.2	14%	i	95*	4.7	7	2	2.2
O=C(O)Cn1c(-c2ccccn2)nc2ccccc21	0.68	1.5	5%	i	-28	-1.1	10	7	-0.6
COc1ccc(S(=O)(=O)N2CCC3(CC2)OCCN3S(=O)(=O)c2cccs2)cc1	·	2.1	·	·	-1	-0.4	-5	-4	11

Among those listed so far, these have fluorine:
SMILES	E coli growth	HNF4A DNA FP	Vif A3G	FGF22 binding	ALR inh	MLL AF4-AF9 inh	rRNA inh HTS	rRNA inh HTS OD600	rRNA inh HTS RFP
C[C@@H]1CCCCO[C@@H](CN(C)S(=O)(=O)c2ccc(Cl)cc2)[C@@H](C)CN([C@H](C)CO)C(=O)c2cc(NC(=O)Nc3ccc(F)cc3)ccc2O1	·	·	·	i	·	-3.3	2	11	0.2
O=c1cc(O)c(-c2cccc(C(F)(F)F)c2)c(Cl)[nH]1	0.68	0.3	15%	i	1	-2.1	1	-2	-0.1

More results:
SMILES	E coli growth	HNF4A DNA FP	Vif A3G	FGF22 binding	ALR inh	MLL AF4-AF9 inh	rRNA inh HTS	rRNA inh HTS OD600	rRNA inh HTS RFP
CCCCC#Cc1cncc(C(=O)N/N=C/c2cccc(OC)c2)c1	·	5.0	5%	i	-3	1.5	-14	0	7.0
COc1cccc(CN2CCN(C(=O)c3ccc(-c4ccccc4)cc3)CC2)c1	0.66	-0.5	3%	i	-6	-2.4	·	·	·
Cc1ccc(C(=O)/C=C2\NCCNC2=O)cc1	0.7	-1.1	·	·	4	·	·	·	·
COc1cc(-c2cc(O)c(-c3ccc4ccccc4n3)c(=O)[nH]2)cc(OC)c1OC	·	135	-2%	i	·	3.2	-5	2	7.5
C[C@H](NC(=O)[C@@H]1[C@@H](CO)[C@@H]2Cn3c(ccc(C4=CCCCC4)c3=O)[C@H]1N2)c1ccccc1	·	·	·	i	·	0.7	0	1	-1.4
CC(C)C#Cc1ccc([C@@H]2[C@@H](C#N)N(C(=O)C3CCC3)[C@H]2CO)cc1	·	·	·	i	·	-0.7	0	0	-0.3
O=C(Nc1cccc(Cl)c1N1CCCC1)c1ccco1	0.65	-1.2	·	i	5	-20	-26	-30	-7.9
CC(C)NC(=O)N(C)C[C@@H]1Oc2c(NS(=O)(=O)c3ccc(F)cc3)cccc2C(=O)N([C@H](C)CO)C[C@@H]1C	·	·	·	i	·	-1.7	0	4	-0.6
CCCC(NC(=O)c1ccccc1)c1nc2ccccc2n1Cc1ccc(C(=O)OC)o1 (stereo not drawn)	0.74	0.8	-7%	·	7	·	·	·	·
C[C@@H]1CCCCO[C@@H](CN(C)C(=O)C2CCCCC2)[C@H](C)CN([C@@H](C)CO)C(=O)c2cc(NC(=O)Nc3ccc(C(F)(F)F)cc3)ccc2O1	·	·	·	i	·	-1.6	3	10	-0.4
O=C(NCC(F)(F)F)[C@H]1[C@H](CO)[C@H]2Cn3c(ccc(-c4cccnc4)c3=O)[C@@H]1N2Cc1ccccc1	·	·	·	i	·	-0.2	0	5	-1.5
CCN(CC(=O)Nc1c(F)cccc1F)C(=O)C1CCN(S(=O)(=O)c2ccc(C)cc2C)CC1	0.64	0.4	1%	i	0	-1.0	-5	6	4.1
COc1ccc(CN2C(=O)CSCC2(C)C(=O)Nc2ccc3c(c2)OCCO3)cc1 (stereo not drawn)	·	-1.1	·	i	·	·	-5	-4	1.1
Cc1ccc(S(=O)(=O)N2CCC(=O)N(C(COCc3cccc(Cl)c3)Cc3ccccc3)CC2)cc1 (stereo not drawn)	0.72	0.6	4%	·	·	·	·	·	·
C[C@H](O)C#Cc1ccc2c(c1)O[C@H](CN(C)CC1CCOCC1)[C@@H](C)CN([C@H](C)CO)S2(=O)=O	·	·	·	i	·	-0.7	-6	-10	-1.7
CCCC(=O)Nc1ccc2c(c1)OC[C@H](C)N(Cc1ccccn1)C[C@H](C)[C@@H](OC)CN(C)C2=O	·	·	·	i	·	-3.0	-1	-4	-1.7
COc1ccc(CN2C(=O)C(CC(=O)NCCCN(C)C)CC(C(=O)N3CCOCC3)=C2C)cc1 (stereo not drawn)	·	-0.2	·	i	·	-1.6	13	17	0.3
CN(C(=O)Nc1ccc(Cl)cc1)n1cnc2ccccc2c1=O	0.66	1.9	-5%	i	-2	-2.6	-40	-50	-9.4
O=C(CCc1nnc2ccc(NCc3ccco3)nn12)N1CCN(c2ccc(F)cc2)CC1	0.63	-1.5	·	i	50	-3.2	2	-16	0.5
Cc1cc(-c2ccccc2)nc(Oc2cccc(C(F)(F)F)c2)c1S(C)(=O)=O	0.75	2.0	-1%	·	-4	·	·	·	·
CNC[C@@H]1OCCCC[C@H](C)Oc2ccc(NS(=O)(=O)c3ccc(C)cc3)cc2C(=O)N([C@@H](C)CO)C[C@H]1C	·	·	·	i	·	0.8	9	0	-0.9
COc1ccccc1C(c1nnnn1CC1CCCO1)N1CCN(c2ccccc2)CC1 (stereo not drawn)	0.65	-0.8	·	i	91*	7.7	10	-3	2.6
O=C(NCC1CCCO1)/C(=C\c1cccs1)NC(=O)c1ccccc1 (stereo not drawn)	0.66	0.5	-5%	i	-3	-0.4	15	11	-6.2
CCOC(=O)CCc1c(C)c2ccc(OCc3nn[nH]n3)cc2oc1=O	0.72	1.1	-2%	·	·	·	·	·	·
COc1ccc(NC(=S)N2CCNC(=O)C2CC(=O)Nc2ccc(C)cc2)cc1 (stereo not drawn)	0.73	-3.6	·	i	·	1.7	-2	-5	16
O=C(Nc1ccc(-n2nncc2-c2ccco2)cc1)c1cccc(F)c1	0.72	0.9	22%	·	13	·	·	·	·
O=C(CCS(=O)(=O)c1ccccc1)NNC(=O)CSc1ccccc1F	0.7	-7.0	·	i	1	-1.3	10	4	-0.4
Cc1cc(C)cc(C(=O)N2CCCCCC2)c1	0.66	-0.4	-5%	·	12	·	·	·	·
O=C(CN(c1ccc(F)cc1)S(=O)(=O)c1ccc2c(c1)OCCO2)NCc1ccccn1	0.65	-1.3	74%	·	-9	·	·	·	·
CC(C)(c1ccccc1)c1ccc(OCC(O)CN2CCCC2)cc1 (stereo not drawn)	0.66	2.5	1%	i	11	2.6	-8	-7	2.3
NC(=O)c1cccc(Nc2nc(C(N)C3CCCCC3)cs2)n1 (stereo not drawn)	·	3.1	·	i	·	6.0	1	-1	0.9
CCOc1ccc2[nH]c(=O)c(C(c3nnnn3C3CCCCC3)N3CCN(CC)CC3)cc2c1 (stereo not drawn)	0.76	0.9	4%	·	·	·	·	·	·
Cc1ccccc1C(=O)NNC(=S)NC(=O)c1cccs1	0.69	-5.3	·	i	8	-0.4	-55	-79	-20
COc1ccccc1NC(=O)N1C[C@@H]2[C@H](c3ccccc31)[C@H](CO)N2CC1CCOCC1	·	·	·	i	·	-0.5	0	-7	0.9
CC(C)NC(=O)N(C)C[C@@H]1OCCCC[C@H](C)Oc2ccc(NC(=O)Nc3ccccc3)cc2C(=O)N([C@H](C)CO)C[C@@H]1C	·	·	·	i	·	2.4	-2	2	1.1
Cc1c(Cl)cccc1NC(=O)C1CCN(S(C)(=O)=O)CC1	0.69	-1.5	3%	i	-3	-3.3	18	14	1.8
NC(=O)C1CCN(C(=O)CC(c2ccccc2)c2ccccc2)CC1	0.66	1.1	·	i	-6	-5.3	7	3	-1.3
COC(=O)c1nc(N)sc1-c1ccc(Cl)cc1	0.7	1.6	-2%	i	-3	-0.7	9	10	0.0
CCOC(=O)/C(C#N)=C/C=C1\C=Cc2ccccc2N1CC	0.68	94*	0%	i	13	3.9	-6	1	-2.5
CCOC(=O)Cc1csc(NC(=S)NC(=O)c2ccccc2C)n1	0.72	3.3	25%	i	3	-1.0	-20*	-4.7*	2.4*
COc1cc(/C=C/C(=O)c2ccccc2O)cc(OC)c1OC	0.72	0.5	-6%	i	·	0.7	-17*	2.5*	-5.6*
COCC(=O)Nc1ccc2c(c1)[C@H]1C[C@H](CC(=O)NCCc3ccccc3)O[C@@H](CO)[C@H]1O2	·	·	·	i	·	0.0	1	-1	-1.1
COc1ccc(CN(C)C[C@H]2Oc3ccc(NC(=O)Nc4ccccc4)cc3CC(=O)N([C@@H](C)CO)C[C@@H]2C)cc1	·	·	·	i	·	2.2	3	5	2.7
Cc1nc2nc3c(cn2n1)C(=O)CC(C)(C)C3	0.66	-6.9	-3%	·	·	·	·	·	·
Cc1ccc(NC(=O)Cc2nnc(SCC(=O)c3ccc(Br)cc3)n2C)cc1	0.66	-0.9	4%	·	-2	·	·	·	·
Clc1ccc(CN2CCC(c3ccccc3)CC2)cc1	0.64	-1.7	6%	i	3	-1.8	8	5	0.8
Cc1ccc(C)c(NC(=O)COC(=O)Cc2ccsc2)c1	0.7	0.9	-3%	i	-6	-1.9	16	16	2.7
